# Screening data (PubChem BioAssay)
# DUX4 inh: blocks DUX4-driven transcriptional activation; 293T-iDUX4 ZSCAN4-Gaussia luciferase reporter, 24 h; stronger effect = lower value; activity change, negative = inhibition, % (test concentration not listed); hit rate 0.8% among 37,000; AID 1224904;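 active = -10% or lower and over 25 points stronger than a control reporter; inconclusive = -10% or lower with a smaller gap; inactive = above -10%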;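 note: 0% = median of neutral control wells and -100% = median of positive control wells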
# DUX4 inh difference: recorded beside DUX4 inh, whose call it bears; Gaussia minus Italica difference, %; measured here: selective DUX4 reporter inhibition;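 worked out from the two reporters; negative = selective loss of the DUX4 reporter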
# DUX4 inh control: second read-out of DUX4 inh, no call of its own (marks repeat the call); activity change, negative = inhibition, %; measured here: Italica tet-on control reporter;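 0 = neutral control and -100 = positive control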
# Active calls of the source: *; ? = inconclusive; nt = not tested or not shown. Only part of the results is shown. The share of hits here may be higher or lower than overall.
DUX4 inh	DUX4 inh difference	DUX4 inh control	structure
3	0	2.7	Cc1noc(C)c1NC(=O)Nc1ccc2c(c1)C(=O)N([C@H](C)CO)C[C@H](C)[C@@H](CN(C)C(=O)NC1CCCCC1)OCCCC[C@H](C)O2
1	-1	2.0	Cc1noc(C)c1NC(=O)N(C)C[C@@H]1OCCCC[C@H](C)Oc2ccc(N(C)C)cc2C(=O)N([C@@H](C)CO)C[C@@H]1C
?	nt	nt	CN1c2ccc(-c3cccc(C#N)c3)cc2[C@H]2[C@H](CCN2S(=O)(=O)c2cccc(F)c2)[C@H]1CO
4	9	-4.8	COc1ccc(CNC(=O)C[C@H]2C[C@H]3c4cc(NC(=O)CN(C)C)ccc4O[C@H]3[C@@H](CO)O2)cc1
4	0	3.9	C[C@@H]1CCCCO[C@H](CN(C)S(=O)(=O)c2cccs2)[C@H](C)CN([C@@H](C)CO)C(=O)c2cc(NC(=O)c3ccccc3)ccc2O1
0	1	-1.1	O=C1N[C@H](Cc2ccccc2)COCc2cn(nn2)CC[C@H]1Cc1ccc(-c2ccccc2)cc1
-59*	-41*	-18*	C[C@H](CO)N1C[C@H](C)[C@H](CN(C)Cc2ccccc2C(F)(F)F)OCc2ccccc2-c2c(n(C)c3ccccc23)C1=O
-3	-8	5.4	C[C@H]1CN([C@@H](C)CO)C(=O)c2c(c3ccccc3n2C)-c2ccccc2CO[C@H]1CN(C)Cc1ccc(-c2ccccc2)cc1
6	0	6.4	COc1ccc(-c2ccc(C3[C@H]4CNC[C@@H]3N4CC3CCOCC3)cc2)cc1 (stereo partly specified)
?	nt	nt	O=C(C[C@H]1CC[C@@H](NC(=O)Nc2ccc(C(F)(F)F)cc2)[C@@H](CO)O1)NCc1cccc(F)c1
-1	-3	2.2	CN(C)CC(=O)Nc1ccc2c(c1)[C@H]1C[C@@H](CC(=O)NCc3ccc4c(c3)OCO4)O[C@@H](CO)[C@H]1O2
9	14	-5.2	CN1c2ccc(-c3ccccc3)cc2[C@@H]2[C@@H](CCN2C(=O)CC2CC2)[C@@H]1CO
-3	-1	-1.8	CO[C@H]1CN(C)C(=O)c2ccc(NC(=O)Cc3ccccc3)cc2OC[C@@H](C)N(CC2CC2)C[C@H]1C
-5	-7	1.4	Cc1ccc(S(=O)(=O)Nc2ccc3c(c2)CC(=O)N([C@H](C)CO)C[C@@H](C)[C@H](CN(C)Cc2ccc(Cl)c(Cl)c2)O3)cc1
2	-1	3.0	CN1C(=O)c2cc(NC(=O)c3ccc(Cl)cc3)ccc2OC[C@H]2O[C@@H](CC(=O)O)CC[C@@H]21
-1	13	-14	CC(C)NC(=O)N1CC[C@@H]2[C@H]1c1cc(-c3cccc(F)c3)ccc1N(C)[C@H]2CO
1	-2	2.8	CN1C(=O)c2cc(NC(=O)C3CCOCC3)ccc2OC[C@@H]2O[C@@H](CC(=O)NCCc3ccncc3)CC[C@@H]21
?	nt	nt	Cc1ccc(-c2ccc([C@@H]3[C@H]4CN(C(=O)Nc5ccccc5)CCCCN4[C@H]3CO)cc2)cc1
0	5	-5.2	CN(C)CCCNC(=O)[C@H]1[C@H](CO)[C@H]2Cn3c(ccc(-c4cccc(F)c4)c3=O)[C@@H]1N2
-3	-5	2.0	C/C=C/c1ccc([C@@H]2[C@H](CO)N(CC3CC3)[C@H]2CNC(=O)c2ccccc2)cc1
0	-6	6.3	COc1ccc(-c2ccc([C@H]3[C@@H](CO)N4C(=O)CN(C(=O)C5CC5)C[C@@H]34)cc2)cc1
1	-2	2.8	CCN1[C@@H]2c3ccc(-c4ccncc4)c(=O)n3C[C@H]1[C@H](CO)[C@H]2C(=O)NCCc1cn(C)cn1
7	2	4.7	COCC(=O)N1CC(=O)N2[C@H](CO)[C@@H](c3ccc(C#Cc4cccc(OC)c4)cc3)[C@H]2C1
-4	-23	19	CCC(=O)N1[C@H](C(=O)NC2CCC2)[C@@H](CO)[C@@H]2Cn3c(ccc(C4=CCCCC4)c3=O)[C@@H]21

# Sorted by SMILES length (ascending): some entries from above.
DUX4 inh	DUX4 inh difference	DUX4 inh control	structure
-3	-5	2.0	C/C=C/c1ccc([C@@H]2[C@H](CO)N(CC3CC3)[C@H]2CNC(=O)c2ccccc2)cc1
0	-6	6.3	COc1ccc(-c2ccc([C@H]3[C@@H](CO)N4C(=O)CN(C(=O)C5CC5)C[C@@H]34)cc2)cc1
2	-1	3.0	CN1C(=O)c2cc(NC(=O)c3ccc(Cl)cc3)ccc2OC[C@H]2O[C@@H](CC(=O)O)CC[C@@H]21

# Next section.
DUX4 inh	DUX4 inh difference	DUX4 inh control	structure
5	0	4.2	O=C(C1CCC1)N1CC2(C1)[C@H](c1ccccc1)[C@H](CO)N2C(=O)c1cccnc1
-1	-3	1.9	CNC(=O)C[C@H]1CC[C@@H]2[C@H](COc3ccc(NC(=O)Nc4ccccc4OC)cc3C(=O)N2C)O1
1	4	-2.2	N#C[C@H]1[C@H](c2ccccc2)[C@H](CO)N1C(=O)Cc1ccccc1
6	-5	11	CN1CCN(C(=O)C[C@H]2CC[C@@H]3[C@H](COC[C@H](O)CN3C(=O)Nc3ccc4c(c3)OCO4)O2)CC1
5	9	-4.7	COC(=O)[C@@H]1[C@@H](CO)[C@@H]2Cn3c(ccc(C4=CCCCC4)c3=O)[C@@H]2N1Cc1ccc2c(c1)OCO2
-1	-1	-0.1	CS(=O)(=O)N1CC2(C1)[C@H](c1ccccc1)[C@@H](CO)N2CC1CC1
-2	1	-3.0	C[C@@H]1CN([C@H](C)CO)S(=O)(=O)c2ccc(-c3ccncc3)cc2O[C@@H]1CN(C)C(=O)c1ccc2c(c1)OCO2
?	nt	nt	CCC(=O)N1CCC2(CC1)CN(Cc1cccc(OC)c1)[C@@H](CO)c1[nH]c3cc(OC)ccc3c12
-3	-3	0.1	CNC[C@H]1Oc2ccc(NC(=O)CCC(F)(F)F)cc2C(=O)N([C@@H](C)CO)C[C@H]1C
1	-1	1.5	C/C=C/c1ccc2c(c1)O[C@@H](CN(C)CC1CCOCC1)[C@H](C)CN([C@@H](C)CO)S2(=O)=O
1	-2	2.4	CO[C@@H]1CC[C@H]2CCOc3ccc(C#N)cc3C(=O)N(C)CCCC(=O)N(C)C[C@@H]1O2
5	1	4.1	CN(C)C(=O)C[C@@H]1CC[C@@H]2[C@H](COC[C@@H](O)CN2Cc2nccs2)O1

# Next section, starting with the last 7 of the part before.
DUX4 inh	DUX4 inh difference	DUX4 inh control	structure
-1	-1	-0.1	CS(=O)(=O)N1CC2(C1)[C@H](c1ccccc1)[C@@H](CO)N2CC1CC1
-2	1	-3.0	C[C@@H]1CN([C@H](C)CO)S(=O)(=O)c2ccc(-c3ccncc3)cc2O[C@@H]1CN(C)C(=O)c1ccc2c(c1)OCO2
?	nt	nt	CCC(=O)N1CCC2(CC1)CN(Cc1cccc(OC)c1)[C@@H](CO)c1[nH]c3cc(OC)ccc3c12
-3	-3	0.1	CNC[C@H]1Oc2ccc(NC(=O)CCC(F)(F)F)cc2C(=O)N([C@@H](C)CO)C[C@H]1C
1	-1	1.5	C/C=C/c1ccc2c(c1)O[C@@H](CN(C)CC1CCOCC1)[C@H](C)CN([C@@H](C)CO)S2(=O)=O
1	-2	2.4	CO[C@@H]1CC[C@H]2CCOc3ccc(C#N)cc3C(=O)N(C)CCCC(=O)N(C)C[C@@H]1O2
5	1	4.1	CN(C)C(=O)C[C@@H]1CC[C@@H]2[C@H](COC[C@@H](O)CN2Cc2nccs2)O1
-7	1	-7.5	COc1ccc(-c2ccc([C@@H]3[C@H]4CN(C(=O)C5CC5)CC(=O)N4[C@H]3CO)cc2)cc1
0	-2	2.1	CN1C(=O)c2cc(NC(=O)Nc3ccccc3F)ccc2OC[C@@H]2O[C@@H](CC(=O)NCc3ccc(-c4ccccc4)cc3)CC[C@@H]21
1	0	0.8	C[C@H]1CN([C@@H](C)CO)C(=O)c2cccc(NC(=O)C3CCCCC3)c2O[C@@H]1CN(C)Cc1ccc(C(=O)Nc2ccccc2N)cc1
1	2	0.0	COCC(=O)Nc1ccc2c(c1)C(=O)N(C)[C@@H]1CC[C@H](CC(=O)NCc3ccccc3Cl)O[C@@H]1CO2
4	-2	5.9	CC(C)CC#Cc1ccc2c(c1)O[C@@H](CN(C)C(=O)Cc1ccncc1)[C@@H](C)CN([C@@H](C)CO)S2(=O)=O
-3	-2	-1.3	C[C@@H]1CN([C@@H](C)CO)C(=O)c2cc(C3=CCCCC3)cnc2O[C@H]1CN(C)C(=O)CN1CCOCC1
15	18	-2.7	Cc1cccc(S(=O)(=O)N(C)C[C@H]2OCc3ccccc3-c3c(n(C)c4ccccc34)C(=O)N([C@@H](C)CO)C[C@@H]2C)c1
1	-4	4.7	COc1ccc(-c2ccc([C@H]3[C@@H](CO)N(C(=O)C4CCOCC4)[C@H]3C#N)cc2)cc1
2	0	2.2	COc1ccccc1C(=O)N1C[C@@H]2[C@H](c3ccccc31)[C@H](CO)N2Cc1ccc(F)cc1
-2	-3	0.5	N#C[C@@H]1[C@@H](c2ccc(C#CC3(O)CCCC3)cc2)[C@@H](CO)N1C(=O)C1CC1
-1	-2	0.8	CCCN1C[C@@H](C)[C@@H](OC)CN(C)C(=O)c2ccc(NC(=O)CC(F)(F)F)cc2OC[C@@H]1C
-3	-5	1.3	C[C@@H]1CN([C@@H](C)CO)C(=O)Cc2cc(NC(=O)Nc3cccc4ccccc34)ccc2O[C@@H]1CN(C)S(=O)(=O)c1ccc(Cl)cc1
4	3	0.5	CO[C@@H]1CN(C)C(=O)c2cc(NC(=O)C3CCOCC3)ccc2OC[C@@H](C)N(C(C)=O)C[C@H]1C
16	12	4.0	CC(=O)N1[C@H](CO)[C@H](c2ccc(C3=CCCC3)cc2)C12CN(C(=O)NC(C)C)C2
0	1	-0.3	O=C([C@H]1[C@H](CO)[C@H]2Cn3c(ccc(-c4ccncc4)c3=O)[C@H]2N1Cc1cocn1)N1CCCCC1
5	2	3.6	Cc1ccccc1S(=O)(=O)N1CC[C@H]2[C@H](CO)Nc3ccc(-c4cccc(F)c4)cc3[C@H]21
9	3	6.1	O=C(NCC1CC1)[C@H]1[C@H](CO)[C@H]2Cn3c(ccc(-c4ccccc4)c3=O)[C@@H]1N2C(=O)C1CC1
6	2	3.8	Cn1cnc(CCNC(=O)C[C@@H]2CC[C@@H]3[C@H](COC[C@@H](O)CN3C(=O)C3CCCC3)O2)c1
?	nt	nt	C[C@@H]1CN([C@H](C)CO)C(=O)c2c(c3ccccc3n2C)-c2ccccc2CO[C@@H]1CN(C)S(=O)(=O)c1ccc([N+](=O)[O-])cc1
2	3	-1.3	CC(=O)N1[C@@H]2Cn3c(ccc(-c4ccccc4)c3=O)[C@H]1[C@@H](C(=O)NCCCN1CCOCC1)[C@@H]2CO
?	nt	nt	CO[C@@H]1CN(C)C(=O)c2ccc(NC(=O)Nc3ccc(C(F)(F)F)cc3)cc2OC[C@H](C)NC[C@H]1C
4	-1	5.1	CO[C@@H](CN(C)S(=O)(=O)c1ccc(C)cc1)[C@@H](C)CN(Cc1ccccc1Cl)[C@@H](C)CO
4	-1	5.4	Cn1cnc(S(=O)(=O)N2C[C@@H](O)COC[C@@H]3O[C@@H](CC(=O)NCc4cccc(F)c4)CC[C@H]32)c1
10	19	-9.2	COCC(=O)Nc1ccc2c(c1)C(=O)N(C)[C@H]1CC[C@H](CC(=O)NC3CCCC3)O[C@H]1CO2
5	8	-3.2	O=C(C[C@@H]1C[C@H]2c3cc(NC(=O)Nc4ccc(C(F)(F)F)cc4)ccc3O[C@H]2[C@@H](CO)O1)NCc1ccccn1
12	-19	31	COCC(=O)N1CC2(CN(Cc3nccs3)C2)c2c(n(C)c3cc(OC)ccc23)[C@H]1CO
1	-6	6.7	C[C@@H]1CN([C@H](C)CO)C(=O)CCCn2cc(nn2)CO[C@H]1CN(C)C(=O)Nc1ccc(F)cc1
-3	-19	16	CC(C)[C@@H](C)NC(=O)N(C)C[C@@H]1OCc2ccccc2-c2ccccc2C(=O)N([C@@H](C)CO)C[C@H]1C
-2	-13	11	CO[C@@H]1CN(C)C(=O)c2cc(NC(=O)Cc3ccccc3)ccc2OC[C@H](C)NC[C@H]1C
9	9	0.2	COc1ccccc1-c1ccc2n(c1=O)C[C@@H]1[C@@H](CO)[C@H](C(=O)NC3CCC3)N(C(=O)NC(C)C)[C@H]21
-4	-1	-2.6	C[C@H](CO)N1C[C@H](C)[C@@H](CN(C)S(=O)(=O)c2ccc(F)cc2)Oc2ccc(NC(=O)CCC(F)(F)F)cc2C1=O
1	-4	4.6	C/C=C/c1ccc([C@H]2[C@@H](CO)N(C(=O)CC)[C@H]2CN(C)Cc2cncnc2)cc1
-9	-13	3.7	COc1ccc2c3c([nH]c2c1)[C@@H](CO)N(CC1CC1)CC31CN(Cc2cc(F)ccc2F)C1
?	nt	nt	O=C(C[C@H]1CC[C@H]2[C@@H](COC[C@@H](O)CN2CCc2ccccc2)O1)NCc1ccc(Oc2ccccc2)cc1
12	8	4.4	Cc1ccccc1-c1ccc([C@@H]2[C@@H](CO)N3C(=O)CN(C(=O)c4cccnc4)C[C@H]23)cc1
21	9	11	COCC(=O)N1CC(=O)N2[C@@H](CO)[C@H](c3ccc(-c4cccnc4)cc3)[C@@H]2C1
3	2	1.1	Cc1noc(C)c1NC(=O)Nc1cccc2c1O[C@@H](CN(C)C(=O)Nc1ccc3c(c1)OCO3)[C@@H](C)CN([C@H](C)CO)C2=O
2	1	1.5	CN1c2ccc(-c3ccccc3F)cc2[C@@H]2[C@@H](CCN2S(=O)(=O)c2ccccc2F)[C@H]1CO
4	3	1.0	C[C@H]1CN([C@@H](C)CO)C(=O)CCCn2cc(nn2)CO[C@H]1CN(C)C(=O)Nc1cccc2ccccc12
-7	3	-9.3	COC(=O)[C@@H]1[C@@H](CO)[C@@H]2Cn3c(ccc(/C=C/c4ccccc4)c3=O)[C@@H]2N1C(=O)C1CCCC1
